# Screens as filed in PubChem.
# Beta2AR agonist: beta2AR agonists driving receptor internalization, primary screen, cell-based, FAP fluorogen, flow cytometry | response, % (no concentration beside the values) | 340,000 compounds, 0.43% hits | Am2.2-beta2AR cells; reference of the scale not given here | AID 504454, 2011;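 active means response above a set limit, near 3 SD of response in nonfluorescent compounds, cut at about 42% in these data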;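 further: stock transfer was 100 nL into about 11 µL; a reference agonist was the positive control; negative values mostly stem from fluorescent compounds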
# Target sequence (P07550 whole entry, looked up): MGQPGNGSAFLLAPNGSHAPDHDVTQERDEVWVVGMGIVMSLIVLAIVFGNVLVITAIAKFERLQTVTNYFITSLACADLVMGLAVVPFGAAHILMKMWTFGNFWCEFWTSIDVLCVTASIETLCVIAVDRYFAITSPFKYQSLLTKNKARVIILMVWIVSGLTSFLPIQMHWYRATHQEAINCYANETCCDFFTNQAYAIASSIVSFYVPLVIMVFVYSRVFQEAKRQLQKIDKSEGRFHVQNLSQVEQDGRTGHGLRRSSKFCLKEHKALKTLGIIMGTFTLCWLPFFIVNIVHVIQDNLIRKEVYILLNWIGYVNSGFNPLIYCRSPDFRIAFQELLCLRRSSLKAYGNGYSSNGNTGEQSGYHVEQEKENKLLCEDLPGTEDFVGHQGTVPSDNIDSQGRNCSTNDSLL
# Beta apoptosis: inhibitors of cytokine-induced beta cell apoptosis, primary screen, luminescence. INS-1E cytokine-induced death, ATP luminescence, 48 h; percent of positive-control rescue, neutral wells zero. protection from apoptosis, % (concentration not given with the values). 300,000 compounds, 0.8% hits;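 active means all replicates at 75% or more, or half of them and the mean; inconclusive means half reach 75% but not the mean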;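 further: 0% = cytokine-treated negative control wells and 100% = positive control rescue; higher means more ATP so stronger rescue from cytokine killing; wells of about 40 µL received 100 nL stock; the first replicate is given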
# Bfl-1 A1 inh: caspase 3/7 activation in MEF A1-2A-BIM cells, primary screen, A1 inhibitor project, cell-based, luminescence, HTS; AID 2462, 2010; 330,000 compounds, 0.066% hits; Caspase-Glo 3/7 luminescence, 3 h; percent of clofoctol response, vehicle zero; caspase activation, % (concentration not given with the values);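 active means over half of replicate activation scores above 10%, or exactly half above 10 with the replicate mean above 10; inconclusive means replicate mean below 10 yet half the replicates above 10; inactive means over half of replicates below 10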;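 further: wells of about 30 µL received 50 nL stock; many hits fall short of the cut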
# T cruzi repl: inhibitors of intracellular T. cruzi growth, primary screen, luminescence, NIH3T3 host cells; T. cruzi beta-gal in NIH3T3, 90 h; inhibition, % (no concentration beside the values); 300,000 compounds, 1.4% hits;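 active means mean inhibition across valid replicates above about 55%, limit read from the data; inconclusive means mean below that limit but half or more replicates reach it; inactive means mean below it, under half of replicates reach it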;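 further: signal also drops with host cell toxicity which is not excluded here; 0% = plate median of DMSO wells and 100% = zero luminescence signal; higher percent means less beta-gal luminescence so fewer parasites; stock transfer was 50 nL into about 50 µL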
# LANA-H2A inh: blockers of LANA interaction with H2A/H2B – biochemical, FP readout, HTS, primary screen. AID 2629, 2010. inhibition, % (concentration not given with the values). cell-free LANA-H2A/H2B peptide, fluorescence polarization. 320,000 compounds, 0.6% hits; in the data active means inhibition mostly above about 10%, no sharp cut-off; inactive means mostly below about 6.7%;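 further: stock transfer was 7.5 nL into about 10 µL; 0% = median of vehicle wells and 100% = median of positive control wells; one replicate is shown; the record names a cut of 25% in any replicate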
# ALR H2O2 inh: inhibitors of human ALR sulfhydryl oxidase, primary screen, biochemical, H2O2 detection, HRP-luminol luminescence, single point | inhibition, % (no concentration beside the values) | FAD-linked sulfhydryl oxidase ALR (Homo sapiens), P55789 | 290,000 compounds, 3.8% hits | purified ALR, DTT oxidation | AID 485317, 2010;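 active means mean and each replicate at 75% or more; inconclusive means only one of the two met; inactive means neither met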;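 further: stock transfer was 7.5 nL into about 7.5 µL; 0% = neutral wells and 100% = wells with inactivated enzyme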
# Target sequence (P55789 whole entry, looked up): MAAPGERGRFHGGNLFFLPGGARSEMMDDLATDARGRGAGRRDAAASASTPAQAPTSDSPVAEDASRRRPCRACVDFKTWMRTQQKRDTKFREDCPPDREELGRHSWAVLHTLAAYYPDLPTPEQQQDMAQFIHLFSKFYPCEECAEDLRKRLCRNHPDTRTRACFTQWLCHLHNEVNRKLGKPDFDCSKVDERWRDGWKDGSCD
# Calb FLC: C. albicans growth inhibition with fluconazole, primary screen, CaCi-2 strain, Alamar Blue fluorescence; growth inhibition, % (test concentration not listed); 300,000 compounds, 0.57% hits; C. albicans CaCi-2 (fluconazole-resistant clinical isolate) + fluconazole, 48 h; AID 1979, 2009;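 active means most replicates above 75%; inconclusive means exactly half above 75%; inactive means most below 75%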;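 further: all wells also contain fluconazole at 8 µg/ml as a sub-toxic cotreatment; 0% = median of DMSO wells and 100% = median of geldanamycin control wells; wells of about 8 µL received 7.5 nL stock; the first replicate is given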
# Ecoli rRNA inh: reduced GFP signal of wild-type E. coli, primary screen, bacterial rRNA inhibitor project, GFP/RFP fluorescence, OD600, single point. E. coli WT GFP vs humanized-ribosome RFP mutants, 24 h; stronger effect = lower value; DMSO median 0, no signal -100. GFP signal change (wild-type ribosome), % (no concentration beside the values). 350,000 compounds, 1.6% hits. AID 720706, 2013;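 active means significant combined selectivity score with lowered wild-type GFP, culture density cut under 30%, mutant RFP and density less affected; inactive means any of these conditions unmet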; further: one replicate is shown; some compounds called inactive have numbers as strong as hits
# Ecoli rRNA inh OD600: second read-out of Ecoli rRNA inh, no call of its own (marks repeat the call); OD600 change, %; measured here: OD600 growth;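 optical density of the mix in the first replicate; 0 = DMSO median and -100 = no signal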
# Ecoli rRNA inh RFP: second read-out of Ecoli rRNA inh, no call of its own (marks repeat the call); RFP signal change, %; measured here: RFP humanized mutant strains;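 first replicate; 0 = DMSO median and -100 = no signal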
# Active calls of the source: *; ? = inconclusive; · = not tested or not shown. Not all compounds are listed; rates above refer to the full screens.
SMILES,Beta2AR agonist,Beta apoptosis,Bfl-1 A1 inh,T cruzi repl,LANA-H2A inh,ALR H2O2 inh,Calb FLC,Ecoli rRNA inh,Ecoli rRNA inh OD600,Ecoli rRNA inh RFP
Cc1cccc(N2Cc3ccc(Br)cc3C2)c1,-1,2,-1.1,·,-0.2,-8,2,-21*,-11*,-1.6*
Cc1cc(NC(=O)OC2CCCCC2)ccc1[N+](=O)[O-],-12,12,-2.2,13,-0.8,-1,23,-33,-52,-9.9
CCOC(=O)Nc1ccc(S(=O)(=O)N2CCOCC2)cc1,-1,-7,-2.0,-10,-0.1,-6,-1,·,·,·
CC1CC2=C(NC(=S)NC2c2ccc(F)cc2)/C(=C/c2ccc(F)cc2)C1 (configuration not stated),-1,-7,0.0,13,-7.3,-19,-1,·,·,·
CCCCC(CC)C(=O)Nc1cc([N+](=O)[O-])ccc1F (configuration not stated),-2,-2,-0.4,-3,0.5,64,-20,1,-5,3.7
CC1(C)CC(=O)C=C(Nc2ccc3c(c2)CCC3)C1,·,6,-1.5,-4,1.6,-3,8,·,·,·
Clc1cccc(Cl)c1Cn1nnc(N2CCCC2)n1,0,-4,-0.1,1,-2.1,0,4,·,·,·
Cc1ccccc1OCC(=O)N/N=C/c1cccc(Oc2ccc([N+](=O)[O-])cc2[N+](=O)[O-])c1,1,16,-0.4,40,·,·,38,·,·,·
CC(=O)Nc1cccc2ncccc12,3,-4,-0.1,-12,4.5,-12,4,8,8,1.9
C/C(CC(=O)Nc1ccccc1[N+](=O)[O-])=N\NC(=O)COc1ccccc1C,0,1,0.5,-2,-0.8,-12,1,·,·,·
C/C(=N\Nc1ccc(S(N)(=O)=O)cc1[N+](=O)[O-])c1ccc2c(c1)OCO2,14,·,·,28,·,·,0,19,24,1.0
O=C(c1c[nH]c(C(=O)C(Cl)(Cl)Cl)c1)c1c(F)cccc1F,46*,-17,1.0,-21,-2.7,-2,4,-4,3,0.2
COCCNC(=O)Cc1c(C)c2c(cc(C)c3c(C(C)(C)C)coc32)oc1=O,33,29,1.4,13,0.7,-4,-11,-11,-19,-0.9
C/C(CC1(O)/C(=N/O)CCc2nonc21)=N\O (configuration not stated),-2,-5,0.5,-2,0.2,0,3,·,·,·
COC(=O)C1=C(C)NC2=C(C(=O)CCC2)C1c1cccc(C)n1 (configuration not stated),4,1,0.2,-3,-1.4,-19,-13,2,9,-3.3
CCN(CC)S(=O)(=O)c1ccc2oc(C(=O)Nc3ccc(OC)cc3OC)c(C)c2c1,4,17,0.2,36,7.5,-10,-1,·,·,·
Cc1ccn2c(c1)nc(=O)c1cc(S(=O)(=O)N3CCCCC3)ccc12,-10,-7,0.5,-21,-1.5,1,16,4,9,-2.2
CCCNC(=O)/C=C/C(=O)O,-3,1,1.4,-11,-4.7,-12,-18,5,12,-0.6
COc1cc(CCCN2C(=O)C(=O)NC[C@H]2Cc2cccc3ccccc23)cc(OC)c1OC,-3,0,1.4,21,2.4,·,5,-35,-66,1.0
COc1ccc(/C=C(\C#N)C(=O)OCC(=O)NCc2ccccc2)cc1,-2,-4,-0.3,-3,-5.1,-27,6,14,0,-5.2
O=C(NC1CCCCC1)C1c2ccccc2C(=O)N1Cc1ccco1 (configuration not stated),-3,-11,-0.1,-9,-5.8,-2,-7,9,5,-8.1
CCCC(=O)N1CCN(c2nc3ccc(Cl)cc3s2)CC1,-3,·,2.2,-14,2.6,-9,-3,-30,-35,-5.0
COc1cc(CC(=O)OCn2nnc3ccccc3c2=O)cc(OC)c1OC,0,-4,0.0,-9,-0.1,-2,2,11,10,-3.2
O=C(O)/C=C/C(=O)N1CCN(Cc2ccc3c(c2)OCO3)CC1,-2,3,-1.3,-1,0.7,-9,8,-1,4,-0.4
NS(=O)(=O)c1ccc(S(=O)(=O)N(Cc2ccccc2F)CC2CCCO2)cc1 (configuration not stated),-2,-2,0.4,-2,0.7,-8,-6,·,·,·
CC1CCN(C(=O)CN(Cc2ccccc2)S(C)(=O)=O)CC1,-7,-1,-0.2,9,4.1,-3,1,1,-1,-0.4
Cc1cccc(C(=O)Nc2sc(C)c(-c3ccccc3)c2C#N)c1,23,25,-0.1,16,3.8,-4,-3,·,·,·
COC(=O)c1cc(S(=O)(=O)N(C)C2CCCCC2)c[nH]1,0,-3,-0.5,-8,1.3,-1,-4,-3,-7,-1.0
CCOC(=O)CC1C(=O)NCCN1C(=O)c1ccc(F)cc1F (configuration not stated),-1,2,0.9,-1,3.5,-15,2,·,·,·
CCCOc1ncnc2c1[nH]c1ccc(OC)cc12,6,6,-6.8,0,3.1,-2,-3,6,10,-1.9
COc1ccc(C(=O)Nc2c(Cl)cc(Cl)cc2C(=O)N2CCC(C)CC2)cc1,-1,-3,0.4,-12,1.4,·,-4,·,·,·
CCOC(=O)CSc1nnc(-c2ccc3ncccc3c2)n1C,2,-6,0.5,8,-3.9,-6,1,9,11,0.3
COc1ccc(C(=O)OCC(=O)NC2CC2)cc1S(=O)(=O)Nc1ccc(C)cc1,-1,0,-0.1,·,-2.3,-1,·,·,·,·
O=C(O)c1ccccc1C1Nc2ccccc2C(=O)N1CCCN1CCOCC1 (configuration not stated),1,0,1.0,1,3.1,6,1,12,3,3.5
CCCCn1c(SCC(=O)/C(C#N)=C(\C)N)nc2ccccc2c1=O,-5,-3,0.2,-4,-4.3,10,-15,·,·,·
COc1ccc(OC)c(/C=C(\NC(=O)c2ccccc2)C(=O)N/N=C/c2ccc(C)s2)c1,0,·,0.8,-11,-2.8,-3,6,·,·,·
Cc1ccc(S(=O)(=O)N(C)C)cc1NC(=O)c1cccnc1Oc1ccccc1,-9,-3,0.2,2,-2.3,·,-6,13,9,-1.3
Cc1ccc(OCc2n[nH]c(=S)n2-c2ccc(C)cc2)cc1,1,-4,-0.4,26,-2.7,47,11,-27,-29,-0.4
Cn1c(=O)[nH]c(NC2CCCCC2)c([N+](=O)[O-])c1=O,1,0,1.1,-19,-4.0,16,-3,·,·,·
Cc1ccc(C(C#N)c2ccc(C(=O)c3ccc(F)cc3)cc2)cc1 (configuration not stated),-6,16,-0.4,-11,1.7,1,15,·,·,·
COc1ccc(NC(=O)c2cccnc2SC)cc1OC,-2,-4,-0.2,-2,-2.3,-2,-18,0,5,-1.5
O=C1CC(c2cccs2)c2ccc3ccccc3c2N1 (configuration not stated),-9,-5,-0.1,4,1.1,-167,-1,-1,11,-0.9
CCOC(=O)C1=C(N)Oc2c(oc(CO)cc2=O)C1c1ccc(F)cc1 (configuration not stated),-4,-6,0.2,-4,1.5,-12,0,·,·,·
Cc1cccc(NC(=O)C2=C(O)c3ccccc3N(C)S2(=O)=O)c1,20,-5,0.4,-13,-0.8,·,-5,·,·,·
CCN1CCN(c2cc(C)nc(-c3ccccc3O)n2)CC1,1,1,-0.4,32,-5.7,-1,-2,-8,-8,-2.2

# Exported with two lines to a compound: part of the list above.
# Every second line gives: Beta2AR agonist, Beta apoptosis, Bfl-1 A1 inh, T cruzi repl, LANA-H2A inh, ALR H2O2 inh, Calb FLC, Ecoli rRNA inh, Ecoli rRNA inh OD600, Ecoli rRNA inh RFP
COc1ccc(OC)c(/C=C(\NC(=O)c2ccccc2)C(=O)N/N=C/c2ccc(C)s2)c1
 : 0, ·, 0.8, -11, -2.8, -3, 6, ·, ·, ·
Cc1ccc(S(=O)(=O)N(C)C)cc1NC(=O)c1cccnc1Oc1ccccc1
 : -9, -3, 0.2, 2, -2.3, ·, -6, 13, 9, -1.3

# Taken from above:
# Reading for Cc1cccc(NC(=O)C2=C(O)c3ccccc3N(C)S2(=O)=O)c1 under Calb FLC: -5
# Reading for CCN1CCN(c2cc(C)nc(-c3ccccc3O)n2)CC1 under Ecoli rRNA inh RFP: -2.2
# Reading for COc1ccc(NC(=O)c2cccnc2SC)cc1OC under Beta apoptosis: -4
# Reading for Cc1ccc(OCc2n[nH]c(=S)n2-c2ccc(C)cc2)cc1 under Ecoli rRNA inh: -27
# Reading for COc1ccc(C(=O)Nc2c(Cl)cc(Cl)cc2C(=O)N2CCC(C)CC2)cc1 under LANA-H2A inh: 1.4

# Continued:
SMILES,Beta2AR agonist,Beta apoptosis,Bfl-1 A1 inh,T cruzi repl,LANA-H2A inh,ALR H2O2 inh,Calb FLC,Ecoli rRNA inh,Ecoli rRNA inh OD600,Ecoli rRNA inh RFP
NC(=O)C1CCN(C(=O)c2ccc([N+](=O)[O-])cc2NC(=O)c2cccs2)CC1,-2,-1,?,-4,5.6,·,-4,-8,4,-2.0
O=C(CN1C(=O)/C(=C/c2ccccc2F)SC1=S)NC1C=CS(=O)(=O)C1 (configuration not stated),-1,-1,1.4,-19,1.1,-4,-1,2,6,-1.2
COc1cccc(OC)c1C(=O)NC(=O)Nc1c(C)cccc1C,2,-1,0.4,-1,2.2,-5,-5,9,12,2.5
NC(=O)C1CCN(C2CC(=O)N(Cc3ccc(N4CCCC4=O)cc3)C2=O)CC1 (configuration not stated),0,-4,0.2,-4,1.2,-3,-24,·,·,·
COC(=O)c1ccc(NC(=O)CSc2nc3ccccc3c(=O)[nH]2)cc1,-1,-3,-0.3,-11,2.5,-22,14,·,·,·
CN(CCN1CCOCC1)C(=O)c1cc(COc2ccc(F)c(F)c2)on1,-4,1,-0.9,-16,0.8,-2,-10,4,1,-2.5
CCCNC(=O)COC(=O)c1cc(C)nc2ccccc12,2,6,0.1,-16,4.9,-17,-1,-2,0,-0.9
CC(CNS(=O)(=O)c1ccccc1)(c1ccccc1)N1CCCCC1 (configuration not stated),-3,-1,-0.6,3,0.2,·,0,3,-1,-5.7
COc1ccc2ccccc2c1/C=N/NC(=O)c1nnn(-c2nonc2N)c1CN(C)C,5,1,0.0,-5,1.2,2,·,-2,8,-0.4
CC(C)CCNc1ncnc2c1nnn2Cc1ccccc1,-6,5,-0.3,-5,-2.8,2,7,8,12,-0.4
COc1ccc(S(=O)(=O)NCC2CCCO2)cc1NC(=O)c1ccc(Cl)cc1 (configuration not stated),2,·,0.6,7,3.6,-15,8,-4,-2,1.8
O=C(CCCCl)NC(=S)Nc1ccc(CN2CCOCC2)cc1,-3,-1,3.3,8,0.9,51,1,4,8,1.1
Cc1ccc(N(CC(=O)Nc2ccc(C)cn2)S(=O)(=O)c2c(C)nn(C)c2C)cc1,-6,0,-0.2,-7,5.5,·,1,·,·,·
